RecA splice inh: Mtb RecA intein splicing inhibitors, primary screen, biochemical, fluorescence, HTS; inhibition, %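 (about 9 µM by stock and volumes)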; Protein RecA (Mycobacterium tuberculosis (strain ATCC 25618 / H37Rv)), P9WHJ3; cell-free RecA intein splicing; AID 2221, 2009; 290,000 compounds, 0.75% hits; in the data active means inhibition above about 30%; inconclusive means no clear call, values can overlap the other calls;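 further: 0% = vehicle wells and 100% = reference inhibitor control wells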
Target sequence (P9WHJ3 whole entry, looked up, canonical isoform): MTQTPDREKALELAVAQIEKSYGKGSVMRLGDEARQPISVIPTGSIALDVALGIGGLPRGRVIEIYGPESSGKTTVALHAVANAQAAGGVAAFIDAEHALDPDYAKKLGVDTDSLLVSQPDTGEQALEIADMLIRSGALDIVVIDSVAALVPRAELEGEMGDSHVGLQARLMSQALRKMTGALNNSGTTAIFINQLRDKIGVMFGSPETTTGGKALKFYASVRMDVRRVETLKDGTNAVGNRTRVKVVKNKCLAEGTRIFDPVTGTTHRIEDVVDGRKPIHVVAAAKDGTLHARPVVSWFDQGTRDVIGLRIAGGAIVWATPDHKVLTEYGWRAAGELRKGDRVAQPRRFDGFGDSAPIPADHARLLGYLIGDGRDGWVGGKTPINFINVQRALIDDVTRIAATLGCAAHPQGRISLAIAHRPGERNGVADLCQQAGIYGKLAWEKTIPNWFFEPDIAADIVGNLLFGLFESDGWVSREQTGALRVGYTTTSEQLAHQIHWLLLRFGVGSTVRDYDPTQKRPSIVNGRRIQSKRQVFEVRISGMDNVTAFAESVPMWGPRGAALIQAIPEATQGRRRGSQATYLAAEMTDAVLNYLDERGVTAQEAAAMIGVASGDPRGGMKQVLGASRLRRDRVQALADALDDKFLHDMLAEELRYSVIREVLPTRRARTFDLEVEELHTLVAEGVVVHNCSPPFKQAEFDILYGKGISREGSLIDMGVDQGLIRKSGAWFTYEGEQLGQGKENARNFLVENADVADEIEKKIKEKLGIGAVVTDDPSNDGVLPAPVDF
Mtb growth: M. tuberculosis H37Rv growth inhibitors, H37Rv strain (AID 1626) | 220,000 compounds, 0.95% hits | inhibition, % at 10 µM, or IC50 in µM where a hit was titrated | M. tuberculosis H37Rv growth inhibition; higher % means a stronger effect;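 active means confirmed in a dose series; inconclusive means inhibition above 80% but not taken into the dose series; inactive means below 80% or under 30% at every dose of the series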;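 further: bacteria incubated seven days before Alamar blue readout; 0% = bacteria only wells and 100% = bacteria with antibiotic wells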
Mtb bLac sens: beta-lactam sensitization of Mtb H37Rv, H37Rv; M. tuberculosis H37Rv growth with meropenem, percent inhibition; hits of this screen are not shown here; inhibition, % at 25 µM; 330,000 compounds, 0.27% hits; AID 434955, 2010;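 active means about 74% or more and at least 40 points above the plate without the antibiotic, then above 30% in a dose series; inconclusive means first-round hits that could not be retested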;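 further: growth measured after seven days incubation then overnight dye step; 0% = bacteria only wells and 100% = bacteria with antibiotic; twin plates without the antibiotic show which effects depend on it; some results filed as inactive read as strong as hits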
Arbovirus anti: antivirals against arbovirus infection, primary screen, cell-based, full library, 10K replicate subset; arbovirus infection cell-based antiviral screen; inhibition, % at 10 µM; 200,000 compounds, 0.37% hits;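 active means inhibition from about 30%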;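 further: bluetongue infection of BSR cells; cell survival read as ATP light after 72 h; 0% = infected wells without compound and 100% = uninfected wells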
YopH PTP inh: YopH tyrosine phosphatase inhibitors, primary screen, biochemical, fluorescence Ex485/Em525. 140,000 compounds, 0.16% hits. inhibition, %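 (about 10 µM by stock and volumes)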. YopH tyrosine phosphatase [Yersinia enterocolitica];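 active means inhibition of 50% or more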;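 further: controls were vehicle for no effect and minimum signal wells for full effect; inactives centre near -20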
Arbovirus anti repeat: second read-out of Arbovirus anti, no call of its own (marks repeat the call); inhibition, %; measured here: 10K subset replicate screen; many hits read low in the repeat;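 first of two repeat runs on a subset; 0% = infected and 100% = uninfected wells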
An asterisk follows results filed as active; ? = inconclusive; · = not tested or not shown. Only part of the results is shown. The share of hits here may be higher or lower than overall.

SMILES	RecA splice inh	Mtb growth	Mtb bLac sens	Arbovirus anti	YopH PTP inh	others
COc1ccc(C(C)(C)C)cc1NC(=O)c1cncc(Br)c1	-17.4	14.5%	0.3	-6.1	1.3
O=C(c1ccc(N2CCCC2)c([N+](=O)[O-])c1)N1CCN(CCO)CC1	·	-8.2%	-6.5	·	·
COc1ccc(C(=O)Nc2cccc(/C=C(\CCC(=O)O)c3nc4ccccc4s3)c2)cc1	0.4	-0.6%	27.0	·	·
CCCCn1c(N)c(N(CCOC)C(=O)c2cc(-c3ccccc3)nc3ccccc23)c(=O)[nH]c1=O	-0.4	·	-2.1	·	·
CC1CN(c2nc3ccccn3c(=O)c2/C=C(\C#N)C(=O)N2CCOCC2)CC(C)O1 (stereo unspecified)	0.2	-5.1%	-2.4	·	·
Nc1ccc(N=Nc2ccccc2)cc1	-1.5	>100µM*	74.1	-22.6	·
Cc1cc(OCC(=O)OCC(=O)Nc2cc(C(F)(F)F)ccc2N2CCOCC2)ccc1Cl	5.7	-1.6%	-4.4	1.3	-36.2
O=C(CN1CCC(O)(c2ccc3c(c2)OCO3)CC1)OC1CCCCC1	-2.8	11.9%	·	-0.2	-35.3
O=S(=O)(O)CCS	1.8	-5.5%	-1.7	·	·
CCCNC(=O)N1CCN(c2ncccn2)CC1	·	-13.6%	-2.6	-2.4	-21.5
CCOC(=O)c1cnc(SCC(=O)Nc2cc(OC)ccc2OC)nc1N	2.5	0.2%	16.9	3.7	-8.1
COc1ccc(-c2cn3ccccc3n2)cc1	0.4	-11.4%	-1.6	·	·
CCOC(=O)c1c(NC(=O)CSc2nnc(C)c(=O)[nH]2)sc2c1CCC2	0.6	-17.4%	-6.0	0.5	-37.4
CCC(Oc1ccccc1)C(=O)Nc1nnc(C(F)(F)F)s1 (stereo unspecified)	·	-10.2%	0.0	13.7	-7.8
CC1=NCCN1S(=O)(=O)c1c(C(C)C)cc(C(C)C)cc1C(C)C	4.5	1.3%	3.4	-1.3	·
CCC(OC(=O)c1ccco1)C(=O)NCc1ccc(C)cc1 (stereo unspecified)	-0.4	-0.9%	3.1	2.8	-27.3
CCOC(=O)c1cccc(Nc2nc(-c3cccnc3)nc3ccccc23)c1	11.2	·	3.8	-5.6	-44.4
CC(=O)Nc1cccc(NC(=O)C2CC(=O)N(C3CCCCC3)C2)c1 (stereo unspecified)	-0.3	·	-12.8	·	·
CCCc1cc(C(=O)N2CCCC(C(=O)c3ccc(Cl)cc3)C2)n(C)n1 (stereo unspecified)	2.1	·	-0.2	·	·
CN(C)c1nc(N)nc(-c2ccco2)n1	2.5	2.7%	4.9	27.2	-30.9	Arbovirus anti repeat=1.2
Cc1occc1C(=O)NNC(=O)c1ccccc1Br	5.4	-1.3%	4.6	9.1	-16.4
CS(=O)(=O)N1CCC(Oc2ccccc2C(=O)NC2CCOC2)CC1 (stereo unspecified)	0.8	1.0%	-3.6	2.2	·
C=C(C)CSc1nnc([C@@H](NC(=O)OC(C)(C)C)C(C)CC)o1 (stereo partly specified)	1.5	-0.2%	0.1	0.8	3.2
CCCn1nnc(NC(=O)c2ccc(OCC)c(Cl)c2)n1	0.6	-4.0%	3.5	0.5	2.0
COc1cccc(C(C(=O)NC2CCCCC2)N(C(=O)Cc2cccs2)c2ccc(-n3cnnn3)c(OC)c2)c1 (stereo unspecified)	-1.6	-0.9%	8.6	1.0	-28.1
CCC(CC)C(=O)Nc1c(C(=O)N2CCN(c3ccccc3)CC2)oc2ccccc12	3.5	·	0.3	·	·
CCOC(=O)c1c(C)oc2c1c1c(c3ccccc32)OCN(CCCC(=O)O)C1	89.7*	10.6%	94.4	·	·
CCn1c(C)nc2cc(C(=O)OC)ccc21	-0.1	-3.4%	-11.3	-2.9	·
CCCCOC(=O)CSCC(=O)N1N=C(c2cccs2)CC1c1ccc(F)cc1 (stereo unspecified)	22.5	8.4%	95.5	-1.1	-9.4
CCCc1cc(=O)oc2cc(OCC(=O)NCCc3ccc(S(N)(=O)=O)cc3)ccc12	-1.4	·	5.2	·	·
COc1ccc(C(CNC(=O)/C=C/c2c(Cl)nc3ccccn23)N(C)C)cc1 (stereo unspecified)	-3.2	6.7%	-11.6	-4.8	·
O=C(NNS(=O)(=O)c1cccc(Cl)c1)c1cc(-c2ccc(F)cc2)nc2ccccc12	·	-7.6%	-4.2	9.6	·
COc1ccc(C(=O)CN2CCOCC2)cc1F	-0.9	-8.0%	-7.7	-3.1	-20.8
CC(=O)/C(N=Nc1ccc(C(=O)O)cc1[N+](=O)[O-])=C(\C)O	2.7	-2.5%	0.3	·	·
S=C(c1ccc(-c2cc(Cl)ccc2Cl)o1)N1CCOCC1	4.6	-2.6%	-1.4	2.8	-24.1
Cn1c(O)c(C=NCCN2CCOCC2)c(=O)[nH]c1=S	1.7	3.6%	3.8	·	·
Cc1ccc(Nc2nc(=O)c3cc([N+](=O)[O-])ccc3s2)cc1	-0.6	5.2%	4.0	·	·
COc1ccc(S(=O)(=O)NCC2CCC(C(=O)NCCCN3CCCC3=O)CC2)cc1 (stereo unspecified)	-1.7	·	5.1	·	·
COc1ccc(CN=C2NC(=O)CC(C(=O)Nc3ccc(Cl)cc3)S2)cc1 (stereo unspecified)	0.1	0.3%	-6.0	7.8	-25.2
CCC(CC)C(=O)Nc1cc(NC(=O)C(CC)CC)cc(C(=O)O)c1	1.4	-9.3%	-8.9	-2.5	-34.3
O=C(CN1CCC(n2nnc3cc(F)ccc32)CC1)Nc1ccccc1N1CCOCC1	0.2	13.6%	59.7	-9.2	-29.3
CCCN1CNC(=S)N(c2ccccc2C)C1	3.3	0.1%	-2.5	4.9	·
COc1ccc(NC(=O)c2cccs2)cc1C(=O)N1CCN(c2ccccc2)CC1	2.2	·	19.9	·	·
COc1ccc(CN2CC(C(=O)NCCCN3CCN(Cc4ccccc4)CC3)CC2=O)cc1 (stereo unspecified)	-3.4	-7.2%	3.5	5.5	-31.1
CCOC(=O)CCCNC(=O)COC(=O)c1cc(Br)c(Br)s1	2.9	48.8%	95.4	6.9	·
Cc1c(CC(=O)NCC(=O)O)c(=O)oc2cc3occ(-c4ccccc4)c3cc12	0.5	·	4.8	·	·
N#Cc1ccc(S(=O)(=O)NC2CCN(Cc3ccccc3)CC2)cc1	1.3	-2.5%	-4.7	·	·
O=c1sc2ccccc2n1COc1ccc(Cl)cc1	17.4	3.8%	20.2	0.2	-27.2
CC(Sc1nc(C(C)(C)C)cc(-c2ccccc2)c1C#N)C(=O)Nc1ccccc1 (stereo unspecified)	-4.1	9.1%	15.6	0.8	-7.2
NNc1nc(N)c2c(n1)-c1ccccc1CC21CCCC1	2.7	2.6%	42.8	-16.6	-15.3
CCN(CC)C1CCN(C(=O)c2cc(COc3ccc(-n4cncn4)cc3)on2)C1 (stereo unspecified)	-1.4	·	-3.0	·	·
O=c1c2ccccc2nc(-c2ccccc2)n1CCN1CCOCC1	2.7	-1.1%	-0.4	0.8	-37.9
CC(C)Cn1c(-c2nn(C)cc2Cl)n[nH]c1=S	·	1.2%	2.5	11.4	-19.8
COC(=O)c1ccc(C(NC(=O)OCc2ccccc2)/C(F)=C/[C@@H](C)C(=O)O)cc1 (stereo partly specified)	0.7	-5.7%	-5.7	·	·
O=C1Nc2ccccc2C12OCC1(CO2)COC2(OC1)C(=O)Nc1ccccc12 (stereo unspecified)	2.8	-6.2%	2.4	2.8	-18.2
Clc1ccc(C2[C@H]3CN(CC4CCCCC4)[C@H](c4ccccc4)C34CC2(c2cccnc2)C4)cn1 (stereo partly specified)	21.3	5.1%	93.8	·	·
CC(NC(=O)c1ccc2c(c1)OCO2)c1ccccc1 (stereo unspecified)	1.7	·	2.5	·	·
Cc1ccc(Nc2nnc(-c3ccc4c(c3)OCO4)o2)c(C)c1	2.7	12.1%	0.1	·	·
CCOC(=O)C1(Cc2ccccc2)CCCN(CCO)C1 (stereo unspecified)	3.7	-3.0%	1.8	2.3	·
COc1ccc2cc(Br)ccc2c1CC(=O)N(C)C	-1.9	7.5%	1.2	-1.1	·

The last four records of the section before lead into the next:
SMILES	RecA splice inh	Mtb growth	Mtb bLac sens	Arbovirus anti	YopH PTP inh	others
CC(NC(=O)c1ccc2c(c1)OCO2)c1ccccc1 (stereo unspecified)	1.7	·	2.5	·	·
Cc1ccc(Nc2nnc(-c3ccc4c(c3)OCO4)o2)c(C)c1	2.7	12.1%	0.1	·	·
CCOC(=O)C1(Cc2ccccc2)CCCN(CCO)C1 (stereo unspecified)	3.7	-3.0%	1.8	2.3	·
COc1ccc2cc(Br)ccc2c1CC(=O)N(C)C	-1.9	7.5%	1.2	-1.1	·
CCC(Sc1ncccc1C(=O)Oc1cccc([N+](=O)[O-])c1)C(=O)Nc1ccccc1OC (stereo unspecified)	6.3	10.4%	69.7	-0.2	-1.3
Cc1ccsc1C(=O)NNC(=S)NCC(C)C	-1.2	-3.9%	-5.7	1.3	-25.1
Cc1ccc(C(=O)Nc2cccc([N+](=O)[O-])c2)cc1S(=O)(=O)Nc1cccc(C(=O)O)c1	0.8	-7.5%	-2.6	4.5	·
O=C(NCCC1=CCCCC1)c1cnccn1	5.4	9.6%	-2.6	-1.4	-3.0
CSCCOC(=O)COc1ccc(/C=N/NC(=O)c2nn(C)cc2Cl)cc1	-0.5	69.8%	98.7	6.7	-19.7
CCOC(=O)c1c(NC(=O)c2cccs2)sc(C(=O)N(C)C)c1C	-5.6	-4.9%	-3.6	-1.7	15.0
C/C(=N\NC(=O)c1cccc([N+](=O)[O-])c1)c1ccco1	-1.2	-10.0%	56.1	·	·
CCOc1ccc(N2C(=O)NC(=O)/C(=C\c3ccc(N4CCCCC4)o3)C2=O)cc1	-3.2	-4.3%	-2.6	8.3	-19.3
Cc1sc2ncnc(N3CCC(C(=O)Nc4ccc(Cl)cc4Cl)CC3)c2c1C	-1.7	·	23.5	·	·
CCOc1ccc(OCC)c(NC(=O)CCS(=O)(=O)c2ccc(C)cc2)c1	-2.4	·	7.8	·	·
CC(=O)/C(=N\Nc1cccc(Cl)c1)Sc1cccc2cccnc12	-5.6	5.6%	6.0	-0.3	7.2
COc1ccc(NC(=S)NC2CCCC2)c(OC)c1	-4.0	·	2.8	·	·
COc1ccc(NC(C)C(=O)Nc2cc(C(F)(F)F)ccc2N2CCOCC2)c(OC)c1 (stereo unspecified)	15.8	6.1%	0.2	-14.0	-28.1
C/C(=N\NC(=O)C(=O)Nc1ccc(C)c(Cl)c1)c1ccncc1	-0.6	1.5%	-4.1	-2.0	-13.8
COc1cccc(N2CC34C=CC(O3)C(C(=O)O)C4C2=O)c1 (stereo unspecified)	-1.2	-12.3%	-7.8	2.3	1.1
COc1ccc(N(CC(=O)NC2CCCC2)C(=O)Cn2nnc(-c3ccc(OC)c(OC)c3)n2)c(OC)c1	2.5	·	0.6	·	·
N#Cc1ccc(Oc2nc(C(N)=O)cc(-c3ccccc3)n2)cc1	0.2	8.9%	0.0	-15.0	-5.3
CSc1ccccc1C(=O)NC(C)c1ccc(-n2ccnc2)cc1 (stereo unspecified)	0.4	·	-3.3	·	·
CCOc1ccc(OCCC(=O)OCC(=O)c2c(N)n(C)c(=O)n(C)c2=O)cc1	-2.0	·	-3.8	·	·
Cc1cc(C)nc(SCCn2c(N3CCOCC3)nc3c2c(=O)[nH]c(=O)n3C)n1	-0.9	-7.7%	-1.0	8.5	·
Cc1ccc(-c2ccc(C(=O)O)o2)cc1Cl	0.6	2.6%	5.7	·	·
Cc1nnc(SCC(=O)N2CCCC(N3CCN(c4ccc(F)cc4)CC3)C2)o1 (stereo unspecified)	-0.4	·	?	·	·
CC(=O)Nc1sc(C)c(C)c1C(=O)OCC(=O)N(C)C1CCS(=O)(=O)C1 (stereo unspecified)	-1.7	3.4%	4.4	8.1	-8.4
CCN(CCS(=O)(=O)c1ccc(Cl)cc1)C(=O)Nc1ccc(Cl)cc1	-0.7	·	-3.1	·	·
c1ccc(Oc2cc(-n3cncn3)ncn2)cc1	1.2	1.8%	4.0	1.9	-27.1
Cc1ccc(Nc2nc(-c3ccccc3)cs2)nc1	1.7	·	15.4	·	·
Clc1ccc(-n2nnnc2-c2cnc3ccccc3c2-c2ccccc2)cc1	21.0	-10.0%	4.3	·	·
Cc1ncc([N+](=O)[O-])n1CCOC(=O)NC(Nc1ccc(F)cc1)C(Cl)(Cl)Cl (stereo unspecified)	-7.8	-1.7%	-8.9	·	·

Source: PubChem BioAssay (several laboratories)
